# gsp antagonist: antagonizes gsp, the McCune-Albright syndrome mutation. gsp-mutant cells, cAMP HTRF, 30 min; control for the full effect not named in the record. Potency, µM (series often up to 76.9 µM), inactives show at the top dose activity change, negative = inhibition, usual class: inhibitors. actives 0.4% (n = 340,000). AID 624288; active = falling curve of any shape with a large fitted effect; inconclusive = falling curve, mostly with a smaller effect; inactive = flat or rising curve; cell line not stated here;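 note: intracellular cAMP measured with PDE inhibitor Ro 20-1724 present during compound exposure; potency is the fitted concentration of half-maximal effect; % is set by controls: 0 for no effect and ±100 for the full control effect; nearly all actives have a fitted effect of over 65% in size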
#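 HTRF cAMP measurement after 30 min RT detection following 30 min, 37C compound treatment alongside […] (added as 300 uM solution) in G418-selected cells seeded at 2000/well and grown 16–24 h.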
# ClpP mod: qHTS Assay for Activators of ClpP | ATP-dependent Clp protease proteolytic subunit (Bacillus subtilis (strain 168)), P80244 | purified B. subtilis ClpP, FRET peptide cleavage, 20 min | Potency, µM (highest dose often 57.5 µM), inactives show top-dose activity change, negative = active | actives 1.9% (n = 340,000) | AID 651965, 2013; active = well fitted falling curve with a large enough effect; inconclusive = small, poorly fitted or top-dose-only effect; inactive = no such curve, though single readings can be large or run the other way; note: potency is the fitted concentration of half-maximal effect; the source files actives as falling curves though it sought activators and does not explain the sign; nearly all actives have a fitted effect of over 65% in size; many hits overshoot -100%
# Target sequence (P80244 whole entry, looked up): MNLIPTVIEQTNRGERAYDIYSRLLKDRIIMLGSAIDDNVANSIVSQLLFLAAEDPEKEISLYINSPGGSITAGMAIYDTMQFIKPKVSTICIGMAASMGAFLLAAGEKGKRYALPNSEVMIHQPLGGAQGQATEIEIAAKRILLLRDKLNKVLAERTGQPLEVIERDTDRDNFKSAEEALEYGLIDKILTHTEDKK
#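 FRET quenching reversal measured ClpP activation: 10 microg/mL B. subtilis ClpP at pH 8 with the FRET-FV decapeptide, read at 430 nm after 320 nm excitation. The 20-min minus 0-min signal was scaled between DMSO/no-enzyme wells and ADEP (5.8 microM final).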
# Sfp inh: inhibitors of Bacillus subtilis Sfp phosphopantetheinyl transferase; Potency, µM, inactives show max response, negative = inhibition, hits mostly inhibitors; Biochemical Sfp PPTase activity, qHTS; AID 1490; actives 3.5% (n = 310,000); Q9F4F7; active = well fitted inhibition curve with a large enough effect; inconclusive = small, poorly fitted or top-dose-only effect, or another doubt; inactive = no such curve, though single readings can be large or run the other way;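 note: the enzyme is Sfp with the accession as filed and its product quenches rhodamine fluorescence; potency is the fitted concentration of half-maximal effect; 0% = enzyme reaction without inhibitor and -100% = no enzyme wells; top concentration of the series not given in the record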
#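 Reaction rates are the 30-min fluorescence difference (ex 525, em 598 nm) in wells containing 15 nM Sfp, 5 uM rhodamine-CoA and 12.5 uM BHQ-2-YbbR at pH 7.6 with 10 mM MgCl2.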
# D2 agonist: agonists of human D2 dopamine receptor (beta-arrestin) | P14416 | DiscoveRx PathHunter D2 beta-arrestin, luminescence, 90 min; 100% = 57 uM dopamine signal | activation, % (concentration not given with the values) | actives 0.084% (n = 360,000); in the data active = activation above about 40%; inconclusive = about 15% to 40%; inactive = below about 15%; note: compound concentration not given in the record; the text of the record calls up to 30% inactive
# Target sequence (P14416 whole entry, looked up): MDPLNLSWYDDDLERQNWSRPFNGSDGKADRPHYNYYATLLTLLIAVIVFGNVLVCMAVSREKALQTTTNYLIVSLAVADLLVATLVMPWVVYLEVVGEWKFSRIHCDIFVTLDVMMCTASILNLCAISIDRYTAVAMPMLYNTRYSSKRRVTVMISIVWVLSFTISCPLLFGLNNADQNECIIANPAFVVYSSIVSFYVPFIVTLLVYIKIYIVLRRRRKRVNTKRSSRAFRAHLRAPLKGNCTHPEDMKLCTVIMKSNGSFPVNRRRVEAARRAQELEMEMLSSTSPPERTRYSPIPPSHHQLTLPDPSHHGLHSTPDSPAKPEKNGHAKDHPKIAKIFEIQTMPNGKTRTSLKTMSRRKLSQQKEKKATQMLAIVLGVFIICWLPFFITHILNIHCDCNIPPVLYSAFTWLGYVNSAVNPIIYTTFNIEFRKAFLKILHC
#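 Agonist mode: compounds alone added to overnight-plated D2 PathHunter cells for 90 min at 37 C, with 57 uM final dopamine (EC100) defining full response. Beta-arrestin recruitment detected by chemiluminescent reagent, read after 1 h at ambient temperature.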
# Menin-MLL FL inh: inhibitors of human menin-MLL interaction, wild-type MLL peptide; Fluorescence polarization, fluorescein-MLL peptide displacement from menin; 290,000 tested, under 10 active; FP activity change, % at 61.4 µM; inconclusive = falling polarisation curve, or a change in total fluorescence; inactive = total fluorescence flat and polarisation flat or rising; no compound was filed as active; the % refers to the polarisation; negative = inhibition;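 note: % of control where 0% means no effect; inhibitors lower the polarisation; unlabelled MLL peptide was the positive control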
# PINK1 modulator: PINK1 expression modulation; PINK1 immunofluorescence, high-content cytometry, 24 h; Potency, µM (doses to about 76.6 µM), for inactives: top-dose activation (PINK1 increase), most hits filed as activators; actives 0.2% (n = 410,000); AID 624263; active = well fitted activation curve with a large enough effect; inconclusive = small, poorly fitted or top-dose-only effect; inactive = flat fitted curve, though single readings scatter; cell line not stated here;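 note: potency is the fitted concentration of half-maximal effect; % of control where 0% means no effect; nearly all actives have a fitted effect of over 65% in size; a mitochondrial uncoupler was the plate control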
#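 Fluorescence from anti-PINK1 antibody, together with nuclear and cell stains, was scanned on a laser-scanning cytometer. Before staining, stable-line cells were incubated 24 hours with compounds at 5 concentrations; primary antibody 12 h at 10 degrees C.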
# gsp agonist: activates gsp, the McCune-Albright syndrome mutation; gsp mutant cells, cAMP HTRF, 30 min; control for the full effect not named in the record; Potency, µM (titrated, usually from 76.9 µM), without a hit: at the highest dose activation (cAMP increase), hits mostly activators; actives 0.13% (n = 340,000); active = well fitted activation curve with a large enough effect; inconclusive = small, poorly fitted or top-dose-only effect, or another doubt; inactive = no such curve, though single readings can be large or run the other way; cell line not stated here;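 note: phosphodiesterase inhibitor Ro 20-1724 added with compounds to block cAMP breakdown; potency is the fitted concentration of half-maximal effect; nearly all actives have a fitted effect of over 60% in size; about a fifth of the inactives were tested at one dose only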
#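 Cells stably selected in G418 were plated at 2000/well, grown 16-24 hr, then given compounds in DMSO with the PDE inhibitor […] (300 uM solution added) for 30 min at 37C; cAMP was read by HTRF.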
# Active calls of the source: *; ? = inconclusive; . = not tested or not shown; & = joins results of further samples; [ ] = another dose, or the depositor's remark.
SMILES,gsp antagonist,ClpP mod,Sfp inh,D2 agonist,Menin-MLL FL inh,PINK1 modulator,gsp agonist
Cc1ccc(C(=O)N/C(=C/c2ccc(Cl)cc2)C(=O)N2CCOCC2)cc1,-9%,.,13%,1.6,-0.3,2.4%,?
Cc1cc(NC(=O)C(C)SCC(=O)OCc2c(Cl)cccc2Cl)no1 (centres undefined),-5%,-3.6%,3%,-3.5,-2.2,1.4%,?
C/C(=N\N=C(N)N)c1ccc(Cl)cc1Cl,1%,0.5%,10%,-1.5,3.4,-0.9%,-4%[15.4 µM]
COc1ccc(N2CCN(C(=O)COC(=O)c3ccc(C)o3)CC2)cc1,13%,1.5%,.,-0.4,.,0.4%,-12%[15.4 µM]
NC1=NC[C@H](Cc2ccc(O)cc2)N1CC1CCCCC1,13%,0.1%,26%,0.8,-1.8,0.4%,-23%
CCN(CC)c1ccc(NC(=O)c2cccnc2)c(C)c1,-4%,-2.3%,17%,-0.9,0.7,3.9%,?
CCN(CC)C(=O)CSc1nnc(-c2ccccc2)c(-c2ccccc2)n1,10%,-0.9%,-10%,0.7,6.9,6.4%,-36%
Cn1nnc(NC(=S)NC(=O)c2cc(Cl)ccc2Cl)n1,-4%,1.3%,50µM*,-11,.,1.2%,21%
Cc1cc(C)cc(NC(=O)Cn2nnc(C(=O)NCc3ccco3)c2N)c1,7%,0.8%&-0.4%,-18%,-1.2,0.2,8.7%&7.4%,28%
Cc1csc(=O)n1CCC(=O)OCc1nnc(-c2ccc([N+](=O)[O-])cc2)o1,-15%,-0.7%,.,-5.2,.,1.3%,7%
COc1cc(C(=O)NCCNC(=O)c2ccco2)cc(OC)c1OC,-8%,.,.,-1.6,.,-1.8%,17%[15.4 µM]
O=[N+]([O-])c1ccc(NN=C(Oc2ccccc2)c2ccc([N+](=O)[O-])cc2)cc1,.,0.8%,.,-1.5,.,3.3%,?
CCOC(=O)c1cccc(NC(=S)NC(=O)c2cccnc2)c1,-2%,.,5%,-4.2,-1.2,4.5%,?
COc1ccc(C[C@H]2CN3C(=NC[C@@H]3C)N2CCNC(=O)CCC2CCCCC2)cc1,11%,0.7%,-28%,-4.3,-5.4,2.0%,4%
O=C(Nc1ccc(S(=O)(=O)N2CCOCC2)cc1)c1cccs1,11%,-0.4%,17%,-0.9,7.9,3.3%,4%
Clc1ccc(OCCn2ccnc2)c2ccccc12,-8%,-9.1%,-4%,-4.0,2.2,-2.4%[38.3 µM],-18%
CCOc1ccc(/C=C2\SC(=S)N(CC(=O)N(CCO)C(C)(C)C)C2=O)cc1,?,.,9%,-1.7,4.1,5.9%,-3%[15.4 µM]
Cn1cc(C(=O)NCc2ccc(F)cc2)cn1,-12%,-0.3%,9%,0.3,-1.5,0.4%,-1%[15.4 µM]
Cc1ccc(C)c(NC(=O)CCN2CCN(CCO)CC2)c1,12%,-3.4%,6%,-3.9,-3.9,-1.8%,-26%
O=C1CC(c2cccc(O)c2)Oc2ccccc21 (centres undefined),2%,-3.2%,.,2.5,.,7.8%,19%
Cc1ccc(SCc2ccc(C(=O)Nc3cccnc3)cc2)cc1,13%,-0.8%,11%,-0.8,4.0,1.0%,22%
COc1ccc(-c2ccc(C(=O)Nc3cccc(Oc4ccccc4)c3)c3occc23)c(C)c1,.,4.7%,.,-1.7,.,2.8%,.
Cc1ccc(C)c(N(C(=O)c2csnn2)C(C(=O)NC2CCCC2)c2ccncc2)c1 (centres undefined),.,.,9%,-4.0,-4.9,2.6%,-7%[15.4 µM]
O=C(NCC1CCCCC1)C1(CC2CC(c3cccc(Br)c3)=NO2)CCNCC1 (centres undefined),-2%,4.1%,-10%,-1.2,-0.8,-2.2%,.
Cc1cc(N2CCCC(C(=O)Nc3cccc4ccccc34)C2)n2ncnc2n1 (centres undefined),5%,-0.7%,6%,-1.4,-0.3,-1.3%,32%[15.4 µM]
N#CCCSC(=S)C1CCCC1=N (centres undefined),.,1.1%,.,-3.6,.,2.7%,22%
CCCc1cc(=O)n2nc(N3CCC(C(=O)N4CCN(c5cccc(OC)c5)CC4)CC3)sc2n1,?,-0.8%,4%,6.9,.,1.5%,35%
COc1cc2c(cc1OC)CN(CC(=O)NC(=O)NC(C)(C)C)CC2,13%,-0.3%,3%,-2.5,0.9,2.6%,-1%[15.4 µM]
Cc1ccsc1C(=O)N1CCC1(C)C(=O)NS(=O)(=O)c1ccccc1C(F)(F)F (centres undefined),.,0.9%,.,-0.7,.,0.1%,.
Cc1cccc(C)c1NC(=O)c1ccc2sc([C@@H]3O[C@H](CO)[C@H](O)[C@H](O)[C@H]3O)nc2c1,.,-0.4%,.,-9.5,.,0.2%,.
Cc1ccc(-c2ccc(CCC(=O)O)n2NC(=O)c2ccc([N+](=O)[O-])cc2)cc1,-2%,.,-2%,10,1.2,3.7%,-3%
CCc1cccc(NC(=O)CN(C)S(=O)(=O)c2cccc3nsnc23)c1,-13%,0.4%,-14%,0.4,0.4,7.2%,-10%
CC(=O)N/C(=C\c1ccccc1)C(=O)Nc1ccc(O)cc1,11%,.,15%,6.5,-5.2,0.6%,-12%[15.4 µM]
N#Cc1c(N)sc2c1CCN(CCc1ccccc1)C2,-1%,22µM*,-4%,3.8,?,-0.9%,1%
CC1=C(C(=O)OC2CCCCC2)C(c2ccc(C)o2)C2=C(CC(C)(C)CC2=O)N1 (centres undefined),-18%,-1.5%,?,-3.4,-1.9,4.1%,-11%
Cc1cc(S(=O)(=O)N2CCOCC2)ccc1OCC(=O)NCc1ccccn1,12%,1.4%,15%,-5.0,-4.3,3.9%,-4%[15.4 µM]
O=C(NC1CCCCC1)c1cc(Cl)nc2ccccc12,-6%,-7.2%,5%,-2.1,4.9,-1.2%,-8%
O=C(Nc1ccc2c(c1)OCCO2)C1CCN(C(=O)c2ccc(F)cc2)CC1,-4%,-0.5%,16%,-5.1,0.7,.,-2%
O=C(NNC(=S)Nc1ccc(Cl)cc1Cl)C1CC1,-5%,1.0%,16%,-6.6,-0.4,0.2%,6%
CCN(Cc1ccccc1)Cc1nnnn1Cc1ccccc1,-9%,2.1%,12%,-3.5,3.3,2.7%,7%
COc1ccc(N2CCN(C(=O)c3nc4nc(C)cc(C)n4n3)CC2)cc1,1%,.,10%,-2.0,1.1,1.4%,-1%[15.4 µM]
O=C(O)C(Cc1ccccc1-c1ccccc1)C(=O)O,0%,-0.4%,7%,1.1,-1.6,1.0%,-14%
CCN1CCN(CC(O)COCc2ccccc2)CC1 (centres undefined),3%,-6.4%,3%,-1.9,-0.5,-1.8%,9%
Cc1ccc(NC(=O)C(c2ccc(Cl)cc2)N2CCOCC2)cc1 (centres undefined),5%,-1.8%,13%,-4.5,-1.1,0.6%,24%
Cc1ccc(CNC(=O)CS(=O)Cc2nc(-c3ccccc3Cl)oc2C)cc1 (centres undefined),0%,0.2%,12%,0.7,.,0.0%,15%
COc1cc(OC)c(C(=O)OCC(=O)Nc2ccc(S(=O)(=O)N3CCOCC3)cc2)cc1OC,5%,.,.,2.1,.,3.8%,-17%
CN(C)c1cnn(-c2ccccc2)c(=O)c1Cl,7%,-1.5%,2%,1.1,4.3,1.0%,-3%
Cc1nc(SCC(=O)N2CCN(C(=O)c3cccs3)CC2)c2c(C)c(C)sc2n1,-30%,-1.0%,.,-8.0,.,0.4%,?
O=C(CN1C(=O)NC2(CCc3ccccc32)C1=O)Nc1ccc(Cl)cc1F (centres undefined),.,0.2%,.,-2.3,.,-0.2%,-15%
COc1ccc(-n2cc(CNCCc3cscn3)c(-c3ccccc3Cl)n2)cc1,-7%,.,5%,1.0,1.9,4.1%,?
COc1cc2cc(CN(CCc3ccccc3C)C(=S)NCCCN3CCOCC3)c(=O)[nH]c2cc1OC,-7%,4.1%,-5%,-0.7,-3.6,3.4%,-26%
Cc1cc(NC(=O)COC(=O)c2ccc(S(=O)(=O)C(F)F)cc2)n(-c2ccccc2)n1,8%,-0.6%,.,3.9,.,-2.0%,-29%
O=C(Nc1ccc2nc(-c3cccnc3)[nH]c2c1)c1ccccc1F,16%,-8.4%,22%,0.9,-1.3,2.0%,43%
O=C(O)/C=C\C(=O)Nc1ccc(N2CCN(c3ccc(Cl)cc3)CC2)cc1,-5%,.,-15%,6.3,1.5,1.7%,?
O=C(C(c1ccccc1)c1ccccc1)N1CCN(c2ccccn2)CC1,-7%,-1.9%,-27%,-1.4,0.1,0.5%,-76%[inhibitor]
CN(Cc1cnn(-c2ccccc2)c1)C(=O)c1cccc(S(=O)(=O)Nc2ccccc2F)c1,.,-0.2%,.,-2.1,.,0.5%,-65%[inhibitor]
CC1CCN(C(=O)C2CCCN2S(=O)(=O)c2ccc(Cl)cc2)CC1 (centres undefined),1%,-1.0%,8%,-7.4,.,6.6%,-51%[inhibitor]
COc1ccc(-c2ccc(CCC(=O)O)n2NC(=O)c2ccc(O)cc2)cc1,3%,-1.8%,21%,-3.2,1.2,0.9%,?
CC(C)(C)OC(=O)CNC(=O)c1[nH]cnc1C(=O)NCCCCCN,14%,0.3%,.,-9.1,.,-0.8%,-190%[inhibitor]
Cc1ccc2nc(C)cc(C(=O)OCC(=O)c3ccc(Cl)c([N+](=O)[O-])c3)c2c1,-1%,-14%,-4%,-13,6.9,0.1%,-31%[inhibitor]

# Single values from the list.
# Result of `CCN(CC)C(=O)CSc1nnc(-c2ccccc2)c(-c2ccccc2)n1` in gsp agonist: -36%
# Result of `COc1cc(C(=O)NCCNC(=O)c2ccco2)cc(OC)c1OC` in D2 agonist: -1.6

# 3 entries out of the list above, sorted by the value under D2 agonist, largest number first:
molecule	Sfp inh	D2 agonist	Menin-MLL FL inh	PINK1 modulator	gsp agonist
Cc1ccc(C(=O)N/C(=C/c2ccc(Cl)cc2)C(=O)N2CCOCC2)cc1	13%	1.6	-0.3	2.4%	?
O=C(NCC1CCCCC1)C1(CC2CC(c3cccc(Br)c3)=NO2)CCNCC1 (centres undefined)	-10%	-1.2	-0.8	-2.2%	.
CCN1CCN(CC(O)COCc2ccccc2)CC1 (centres undefined)	3%	-1.9	-0.5	-1.8%	9%
